# Screening results deposited in PubChem BioAssay by National Center for Advancing Translational Sciences (NCATS).
# ClpP mod: qHTS Assay for Activators of ClpP; ATP-dependent Clp protease proteolytic subunit (Bacillus subtilis (strain 168)), P80244; purified B. subtilis ClpP, FRET peptide cleavage, 20 min; Potency, µM (series often up to 57.5 µM), for inactives: at the highest dose activity change, negative = active; 1.9% of 340,000 active; AID 651965, 2013; active = well fitted falling curve with a large enough effect; inconclusive = small, poorly fitted or top-dose-only effect; inactive = no such curve, though single readings can be large or run the other way; also: the source files actives as falling curves though it sought activators and does not explain the sign; nearly all actives have a fitted effect of over 65% in size; many hits overshoot -100%
# Target sequence (P80244 whole entry, looked up): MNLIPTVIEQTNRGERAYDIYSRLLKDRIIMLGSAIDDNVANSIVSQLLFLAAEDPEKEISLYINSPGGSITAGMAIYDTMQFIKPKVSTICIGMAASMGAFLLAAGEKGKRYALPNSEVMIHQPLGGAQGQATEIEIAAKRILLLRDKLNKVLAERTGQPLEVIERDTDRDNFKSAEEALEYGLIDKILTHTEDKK
#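 FRET quenching reversal measured ClpP activation: 10 microg/mL B. subtilis ClpP at pH 8 with the FRET-FV decapeptide, read at 430 nm after 320 nm excitation. The 20-min minus 0-min signal was scaled between DMSO/no-enzyme wells and ADEP (5.8 microM final).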
# Numbers without * were called inactive; ? = inconclusive. Potency is read from the fitted curve at half-maximal effect. The list is partial; the hit share may differ from the screen's.
SMILES,ClpP mod
Cc1ccc(S(=O)(=O)C(CNC(=O)COc2ccc(Cl)cc2)c2ccco2)cc1 (stereo unspecified),-2.3%
CCC1CCCCN1Cc1c(O)ccc2c(=O)c(Oc3ccccc3Cl)c(C(F)(F)F)oc12 (stereo unspecified),-0.8%
CC(=O)c1c(C)n(-c2cccc(Cl)c2)c2ccc(OC(=O)c3ccccc3)cc12,2.9%
COC(=O)c1ccc(NC(=O)C(=O)NCCc2csc(-c3ccc(F)cc3)n2)cc1,-1.8%
COc1ccc(/C=C/c2nc(C#N)c(NCc3ccc(F)cc3)o2)cc1OC,4.4%
CCCCOc1ccccc1C1CC(=O)Nc2cc(OC)c(OC)cc21 (stereo unspecified),-2.5%
CCOc1ccc(-c2cn3c(n2)sc2cc(C(=O)NC4CCCc5ccccc54)ccc23)cc1 (stereo unspecified),5.01µM*
Cc1cccc(NC(=O)C2CCCN(S(=O)(=O)c3cccc4nonc34)C2)c1C (stereo unspecified),-5.5%
N#Cc1c(C(F)(F)F)cc(-c2cccs2)nc1SCC(=O)Nc1cccc(Cl)c1,?
COC(=O)c1ccc(NC(=O)CC2C(=O)N(c3cccc(OC)c3)C(=O)N2Cc2cccs2)cc1 (stereo unspecified),-4.5%
CN1CCN(CCNC(=O)c2cnn(-c3cccc(Cl)c3)c2C2CCN(C(=O)OC(C)(C)C)CC2)CC1,-0.6%
CCOc1ccc(CN2C(=O)c3ccccc3Sc3ccc(C(=O)NC4CCC(C)CC4)cc32)cc1 (stereo unspecified),-7.2%
O=C(COc1ccccc1Cl)N(Cc1ccco1)Cc1ccco1,-0.3%
CC(C)(C)NC(=O)c1cnn2c(C(F)F)cc(-c3ccccc3)nc12,-0.4%
CCOc1ccccc1Nc1sc(C(=O)c2ccc(Cl)cc2)c(N)c1C#N,-2.2%
CCOc1ccccc1CNC(=O)Cc1ccc(NC(=O)N2CCCCc3ccccc32)cc1,-0.5%
C=C[C@H](CC(C)C)N(Cc1ccccc1)S(=O)(=O)N(Cc1ccccc1)[C@H](C=C)CC(C)C,-0.8%
CCOc1ccc(CCNC(=O)CS(=O)(=O)Cc2nc(-c3cccc(Cl)c3)oc2C)cc1,-3.0%
O=C(Cn1c(=O)oc2cc(S(=O)(=O)NCc3ccccc3)ccc21)NCc1ccccc1Cl,-4.7%
COc1ccc(OC)c(CNC(=O)c2cc(-c3ccc(Cl)s3)nc3ccccc23)c1,47.6%
Cc1ccc(OCCCC(=O)Nc2sc3c(c2C(N)=O)CCC(C)C3)cc1 (stereo unspecified),-12.4%
COc1cccc(NC(=O)Cc2ccc(NC(=O)N3CCCCc4ccccc43)cc2)c1,-0.7%
CCOc1ccc(-c2nnc(SCC(=O)Nc3cccc(Cl)c3C)o2)cc1,35.7%
COc1ccc(OC)c(CNc2ncnc3onc(C)c23)c1,-0.9%
COC(=O)c1c(NC(=O)CCCOc2cccc(C)c2)sc2c1CCC(C)C2 (stereo unspecified),-7.7%
Cc1cc(C)c2nc(N(Cc3cccnc3)C(=O)c3ccc(S(=O)(=O)N(C)C)cc3)sc2c1,0.6%
Cc1ccc(Cl)cc1NC(=O)C1CCN(c2nc3ccccc3n3cccc23)CC1,-21.9%
O=C(Nc1ccccc1Cl)N1CCC(CN2CCCCC2)CC1,-0.6%
CC(=O)c1ccc(NC(=O)Cn2cc(S(=O)(=O)Cc3cccc(Cl)c3)c3ccccc32)cc1,0.8%
Cc1ccc(C)c(N2CCN(S(=O)(=O)c3ccc4c(c3)CCCN4C(=O)C3CCC3)CC2)c1,0.3%
CCOc1cccc2sc(N(Cc3cccnc3)C(=O)C3CCCCC3)nc12,-5.9%
COc1ccc(-c2nc3c(c(SCc4cc(C)ccc4C)n2)Cc2c(CO)cnc(C)c2O3)cc1,-5.7%
CN(c1ccc(Cl)cc1)S(=O)(=O)c1nnc(NC(=O)C2CCCCC2)s1,1.5%
COc1ccccc1-c1nnc(C2CCN(S(=O)(=O)c3ccc(F)c(C)c3)CC2)o1,-16.4%
CCOc1ccc(NC(=O)Cn2cc(S(=O)(=O)N3CCN(c4ccccc4F)CC3)c3ccccc3c2=O)cc1,-17.0%
Cc1ccc(C)c(NC(=O)CSc2cn(CC(=O)N3CCCC3)c3ccccc23)c1,-2.3%
Cc1ccc(C)c(N2CCN(S(=O)(=O)c3cc(C(=O)Nc4ccccc4C(F)(F)F)ccc3F)CC2)c1,-5.0%
CCOc1ccccc1C(=O)N1CCC(c2nc3ccccc3o2)CC1,-4.9%
O=S(=O)(c1cccc(F)c1)N1CCC(c2nc3ccccc3s2)CC1,-0.6%
O=C(Nc1ccc(F)c(F)c1)c1cnn2c1NC(=C1CC1)C=C2C(F)F,1.1%
Cc1nnc(N2CCC(C(=O)NC(C)C)CC2)c2nn(-c3ccc(Cl)cc3)c(C)c12,-1.6%
Cc1cccc(Cn2cc(C(=O)Nc3cc(F)ccc3F)ccc2=O)c1,-0.1%
O=C(Nc1ccc2nc(SCCOc3ccccc3)sc2c1)c1ccccc1F,12.2%
Cc1ccc(CCNC(=O)c2ccc3c(c2)N(Cc2ccccc2F)C(=O)c2ccccc2S3=O)cc1 (stereo unspecified),-0.1%
CC1=C(C(=O)Nc2ccccc2)C(c2ccc(Br)cc2)n2nc(CCCO)nc2N1 (stereo unspecified),1.5%
CC1(C)CC(=O)c2cc(C(=O)Nc3ccc(Cl)cc3)c(=O)[nH]c2C1,-3.9%
COc1ccc(CCNC(=O)c2ccc3c(c2)N=C(C)c2cc(C)ccc2S3)cc1OC,-3.7%
Cc1ccc(-n2ncc(C(=O)NCc3ccccn3)c2C2CCN(C(=O)OC(C)(C)C)CC2)cc1C,-1.9%
O=C(c1ccc2c(c1)N(Cc1ccccc1F)C(=O)c1ccccc1S2(=O)=O)N1CCc2ccccc21,2.2%
COc1ccc(-c2noc(CC(=O)N(C)c3cc(Cl)c(OC)cc3OC)n2)cc1,0.2%
CC1Cc2cc(S(=O)(=O)NCc3ccc(N(C)C)cc3)ccc2N1C(=O)C1CCC1 (stereo unspecified),-0.9%
COc1cc(-c2nc3ccccn3c2Nc2ccccc2C)ccc1O,3.7%
CC(=O)Nc1c(C)nn(-c2ccccc2)c1N1CCC(C(=O)Nc2cc(Cl)ccc2C)CC1,-1.8%
O=C(CC(c1cccs1)N1Cc2ccccc2C1=O)Nc1ccc(F)c(F)c1 (stereo unspecified),-1.0%
Cc1cc(C)nc(NS(=O)(=O)c2ccc(NC(=O)c3nc(SC(C)C)ncc3Cl)cc2)n1,0.9%
COc1cc(C(=O)NCc2ccc3c(c2)CCN3C(=O)c2ccncc2)cc(OC)c1OC,-2.7%
COc1ccc(-c2c3c(=O)n(C)c(=O)n(C)c3c3c(-c4cccc(C)c4)nc4ccccc4n23)cc1,-0.9%
COC(=O)c1scc(-c2ccc(C)cc2)c1S(=O)(=O)N1CCN(c2ccc(OC)cc2)CC1,-0.7%
COc1ccc(NC(=O)c2sc3nc4c(cc3c2N)CN(C(C)C)CC4)c(OC)c1,-8.7%
Cc1ccccc1-n1cc(-c2ccccc2)nc1SCC(=O)Nc1ccc(F)cc1,0.1%

# Next entries follow:
SMILES,ClpP mod
O=C(c1ccc2c(c1)N(Cc1ccccc1)C(=O)c1ccccc1S2=O)N1CCC(Cc2ccccc2)CC1 (stereo unspecified),3.6%
Cc1ccc(NC(=O)CCS(=O)(=O)c2ccc(Br)s2)c(Br)c1,0.3%
CCOc1ccccc1C(=O)Nc1ccc(S(=O)(=O)Nc2ncccn2)cc1,-4.1%
COc1ccc(NC(=O)C2(c3cccs3)CCOCC2)cc1Cl,1.5%
Cc1cccc(-n2ncc(C(=O)N3CCN(c4ccc(C)cc4C)CC3)c2C2CCN(C(=O)OC(C)(C)C)CC2)c1,1.8%
CCc1cccc(C)c1NC(=O)CSc1n[nH]c(-c2ccccc2)n1,-0.3%
COc1ccccc1/C=C/c1nc(C#N)c(N2CCN(C)CC2)o1,3.6%
Nc1ccn(C2C=CC(CO)O2)c(=O)n1 (stereo unspecified),-1.1%
COc1ccc(C2=C(C(C)=O)Sc3nnc(-c4ccccc4)n3N2C(C)=O)cc1,-4.8%
CCn1c(=O)c2sccc2n2c(CCCC(=O)Nc3ccc(C)cc3)nnc12,-0.6%
COCCCNC(=O)C1CCN(C(=O)c2cnn(-c3ccccc3)c2-n2cccc2)CC1,-0.6%
CCOc1ccc(C(=O)c2cn(CC(=O)Nc3ccc(Cl)cc3)c3cc4c(cc3c2=O)OCO4)cc1,-5.6%
COc1ccc(CNC(=O)c2cc3cc(S(=O)(=O)N4CCCCC4)ccc3n2C)c(OC)c1,?
O=C(c1ccc2c(c1)N(Cc1ccccc1F)C(=O)c1ccccc1S2=O)N1CCOCC1 (stereo unspecified),-0.9%
Cc1ccc(C(=O)N2CCc3cc(CNC(=O)CCc4ccccc4)ccc32)cc1,-0.8%
O=C(Cn1ncc2c3ccccc3n(Cc3ccccc3)c2c1=O)NCCCN1CCCCC1,-28.8%
COc1ccc(CN(Cc2ccccc2)C(=O)C2CC2)cc1COc1ccc(NC(C)=O)cc1,-4.7%
O=C(NCc1cccc(Cl)c1)c1cc2c(s1)-c1ccccc1OC2,4.2%
O=S1(=O)c2ccccc2N(Cc2ccccc2F)c2ccccc21,-0.3%
COc1cc(Cl)c(NC(=O)c2cc3ccccn3n2)c(OC)c1,101.8%

# For convenience, part of the list above.
SMILES,ClpP mod
O=C(c1ccc2c(c1)N(Cc1ccccc1)C(=O)c1ccccc1S2=O)N1CCC(Cc2ccccc2)CC1 (stereo unspecified),3.6%
Cc1ccc(NC(=O)CCS(=O)(=O)c2ccc(Br)s2)c(Br)c1,0.3%
CCOc1ccccc1C(=O)Nc1ccc(S(=O)(=O)Nc2ncccn2)cc1,-4.1%
COc1ccc(NC(=O)C2(c3cccs3)CCOCC2)cc1Cl,1.5%
Cc1cccc(-n2ncc(C(=O)N3CCN(c4ccc(C)cc4C)CC3)c2C2CCN(C(=O)OC(C)(C)C)CC2)c1,1.8%
CCc1cccc(C)c1NC(=O)CSc1n[nH]c(-c2ccccc2)n1,-0.3%
COc1ccccc1/C=C/c1nc(C#N)c(N2CCN(C)CC2)o1,3.6%
Nc1ccn(C2C=CC(CO)O2)c(=O)n1 (stereo unspecified),-1.1%
COc1ccc(C2=C(C(C)=O)Sc3nnc(-c4ccccc4)n3N2C(C)=O)cc1,-4.8%
CCn1c(=O)c2sccc2n2c(CCCC(=O)Nc3ccc(C)cc3)nnc12,-0.6%
COCCCNC(=O)C1CCN(C(=O)c2cnn(-c3ccccc3)c2-n2cccc2)CC1,-0.6%
CCOc1ccc(C(=O)c2cn(CC(=O)Nc3ccc(Cl)cc3)c3cc4c(cc3c2=O)OCO4)cc1,-5.6%
COc1ccc(CNC(=O)c2cc3cc(S(=O)(=O)N4CCCCC4)ccc3n2C)c(OC)c1,?
O=C(c1ccc2c(c1)N(Cc1ccccc1F)C(=O)c1ccccc1S2=O)N1CCOCC1 (stereo unspecified),-0.9%
Cc1ccc(C(=O)N2CCc3cc(CNC(=O)CCc4ccccc4)ccc32)cc1,-0.8%
O=C(Cn1ncc2c3ccccc3n(Cc3ccccc3)c2c1=O)NCCCN1CCCCC1,-28.8%

# (continued)
SMILES,ClpP mod
Cc1cc(C)c(Cn2c(=O)n(Cc3ccccc3)c(=O)c3c(C)c(C)sc32)c(C)c1,1.8%
COc1ccc(-c2nc3cc(NC(=O)COc4ccc(C)c(C)c4)ccc3o2)cc1,-19.9%
Cc1csc2nc(COc3ccc(NC(=O)C(C)C)cc3)cc(=O)n12,-5.5%
O=C(CSc1oc(-c2ccc(F)cc2)nc1S(=O)(=O)c1ccccc1)c1ccc(Cl)cc1,0.1%
CC(NC(=O)C1CCN(S(=O)(=O)Cc2ccccc2)CC1)c1ccccc1 (stereo unspecified),0.3%
CN(C)S(=O)(=O)c1ccc2c(c1)c(=O)c(C(=O)N1CCN(c3cccc(Cl)c3)CC1)cn2C,0.4%
COc1ccc(-c2cc(C(=O)Nc3c(C(=O)c4ccc(C)cc4)oc4ccccc34)no2)cc1,1.0%
Cc1cc(O)c(C(c2ccccc2)N2CCN(c3ccccc3)CC2)c(=O)n1Cc1ccco1 (stereo unspecified),1.5%
CC(=O)Nc1ccc(C)cc1-c1nc2ccccc2n(Cc2cccc(Br)c2)c1=O,0.1%
CCN(C(=O)Nc1cn(CC(C)C)c(=O)c2ccccc12)c1cc(C)ccc1C,?
COc1ccccc1N1CCN(C(=O)c2cc3ccc4ccc(C)[nH]c4c3n2)CC1,-1.9%
COc1cccc(CNC(=O)c2cccn2-c2nnc(N3CCCC3)s2)c1,-6.2%
CCOC(=O)/C(C#N)=C/c1ccc(-c2ccccc2)o1,5.8%
O=C(NCc1ccc2c(c1)CCN2C(=O)c1ccccc1)c1cc2ccccc2[nH]1,1.4%
CCCN1C(=O)c2ccccc2NC1c1ccc(OC)c(COc2cccc(C)c2C)c1 (stereo unspecified),4.2%
CS(=O)(=O)N(CC(=O)Nc1ccc(Br)cc1)c1ccccc1Br,-3.0%
S=Cc1ccc(/C=C/c2ccnc3ccccc23)cc1,-3.4%
COc1cc(NC(=O)CSc2nc(-c3ccccc3)no2)cc(OC)c1,-0.2%
CCN(CC)c1ccc2cc(-c3nc(-c4ccccc4F)no3)c(=O)oc2c1,25.1µM*
CCOC(=O)c1c(-c2ccc(C)cc2)csc1NC(=O)c1cc(=O)c2cc(C)cc(C)c2o1,1.5%
Cc1ccc(-n2nc(C(=O)N3CCN(c4ccccc4F)CC3)c(=O)n(C)c2=O)cc1,0.5%
Cc1c(C(=O)N(C)C)sc2c1c(=O)n(-c1ccc(Cl)c(Cl)c1)c(=O)n2CC(=O)Nc1cccc(C(F)(F)F)c1,-0.3%
CCOc1ccc(OCC)c(NC(=O)c2c(C)nn(-c3ccccc3)c2-n2cccc2)c1,?
COC(=O)c1ccc(NC(=O)c2c(NCc3ccc(C)o3)sc3c2CCCC3)cc1,-1.4%
